gsp agonist: gsp mutant agonism; Potency, µM (top dose mostly 76.9 µM), for the others: at the top dose activation (cAMP increase), hits mostly activators; 340,000 tested, 0.13% active; gsp mutant cells, cAMP HTRF, 30 min; control for the full effect not named in the record; active = well fitted activation curve with a large enough effect; inconclusive = small, poorly fitted or top-dose-only effect, or another doubt; inactive = no such curve, though single readings can be large or run the other way; cell line not stated here;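 note: phosphodiesterase inhibitor Ro 20-1724 added with compounds to block cAMP breakdown; potency is the fitted concentration of half-maximal effect; nearly all actives have a fitted effect of over 60% in size; about a fifth of the inactives were tested at one dose only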
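Cells in DMEM/10% FBS with G418 were pretreated with compounds in DMSO plus […] (300 uM stock) for 30 min at 37C. cAMP was measured by HTRF (cAMP-d2 plus anti-cAMP antibody-K) after 30 min at room temperature.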
D2 potentiator: positive allosteric modulators of human D2 dopamine receptor. P14416. DiscoveRx D2 beta-arrestin cells, luminescence, 90 min; 100% = 57 uM dopamine signal. potentiation, % (concentration not given with the values). 360,000 tested, 0.23% active. AID 624464; active = potentiation of 50% or more; inconclusive = 30% to 50%; inactive = 30% or less;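 note: compound concentration not given in the record; tested on top of an EC20 dose of dopamine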
Target sequence (P14416 whole entry, looked up): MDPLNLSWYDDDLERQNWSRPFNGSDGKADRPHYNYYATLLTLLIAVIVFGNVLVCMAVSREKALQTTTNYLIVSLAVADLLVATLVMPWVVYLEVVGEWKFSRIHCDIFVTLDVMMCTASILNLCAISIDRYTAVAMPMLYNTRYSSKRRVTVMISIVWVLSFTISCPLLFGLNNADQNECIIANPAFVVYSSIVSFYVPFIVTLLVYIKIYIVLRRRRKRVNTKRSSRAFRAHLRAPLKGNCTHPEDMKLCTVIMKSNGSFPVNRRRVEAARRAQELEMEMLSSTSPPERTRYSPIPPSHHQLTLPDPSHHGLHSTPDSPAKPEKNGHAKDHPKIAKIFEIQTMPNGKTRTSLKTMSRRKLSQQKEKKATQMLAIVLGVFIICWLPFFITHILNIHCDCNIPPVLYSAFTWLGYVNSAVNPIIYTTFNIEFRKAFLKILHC
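PathHunter D2 cells, attached overnight at 37 deg C, received compound in DMSO plus dopamine at EC20 (50 nM final) for 90 min at 37 deg C. Beta-arrestin recruitment was read as luminescence after 1 h with detection reagent at ambient temperature.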
D2 ag: human D2 receptor agonism in beta-arrestin assay. P14416. activation, % (no concentration beside the values). AID 624465. 360,000 tested, 0.084% active. DiscoveRx PathHunter D2 beta-arrestin, luminescence, 90 min; 100% = 57 uM dopamine signal; in the data active = activation above about 40%; inconclusive = about 15% to 40%; inactive = below about 15%; note: compound concentration not given in the record; the text of the record calls up to 30% inactive
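DiscoveRx PathHunter D2 beta-arrestin cells (2,100/well) attached overnight, then compound-stimulated 90 min at 37 C in HBSS/10 mM HEPES/0.1% Tween-20 buffer; beta-galactosidase complementation read by luminescence after 1 h at ambient temperature. Dopamine 57 uM final (EC100) as control.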
CtBP-E1A blk: blocks the CtBP interaction with E1A. activity change, % (concentration not given with the values). AID 651724. AlphaScreen GST-E1A/His-CtBP binding, 1536-well; active compounds read low; control for the full effect not named in the record. 340,000 tested, 0.49% active; in the data active means activity change below about -65%; inconclusive means about -30% to -65%; inactive means above about -30%; note: % is set by controls: 0 for no effect and ±100 for the full control effect
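AlphaScreen with 125 nM GST-E1A and 125 nM His-CtBP (5X stocks) in Tris pH 8.0, 300 mM NaCl, BSA, Tween 20, TCEP. Compounds preincubated 2 h at 37 deg C, then glutathione donor/nickel acceptor beads added for 1 h at 37 deg C in dark.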
gsp antag: antagonists of gsp mutant (McCune-Albright syndrome); gsp-mutant cells, cAMP HTRF, 30 min; control for the full effect not named in the record; Potency, µM (titrated, usually from 76.9 µM), without a hit: top-dose activity change, negative = inhibition, hits mostly inhibitors; 340,000 tested, 0.4% active; AID 624288; active = falling curve of any shape with a large fitted effect; inconclusive = falling curve, mostly with a smaller effect; inactive = flat or rising curve; cell line not stated here;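 note: intracellular cAMP measured with PDE inhibitor Ro 20-1724 present during compound exposure; potency is the fitted concentration of half-maximal effect; % is set by controls: 0 for no effect and ±100 for the full control effect; nearly all actives have a fitted effect of over 65% in size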
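Cells in G418 medium, seeded 16-24 h, 37C; buffer exchange to DPBS + 1 mM CaCl2, 0.5 mM MgCl2, 0.05% BSA; cpds in DMSO + […] (300 uM stock), 30 min 37C; HTRF cAMP detection.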
Six1-Eya2 blk: inhibitors of human Six1/Eya2 interaction; Q15475+O00167; AlphaScreen GST-Six1/His-Eya2 binding, biochemical; active compounds read low; control for the full effect not named in the record; activity change, % (test concentration not listed); 360,000 tested, 0.56% active; AID 651725; in the data active = activity change below about -65%; inconclusive = about -30% to -65%; inactive = above about -30%; note: % is set by controls: 0 for no effect and ±100 for the full control effect
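Compounds are tested against tagged Six1 and Eya2 proteins bridged by glutathione donor and nickel acceptor beads; after a one-hour incubation at 37 °C without light, AlphaScreen emission is recorded.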
The depositor's hits bear a star; ? = inconclusive; . = not tested or not shown; [ ] = remark or other dose.

The line under a structure holds: gsp agonist, D2 potentiator, D2 ag, CtBP-E1A blk, gsp antag, Six1-Eya2 blk
[1] COc1cc(CN2CCN(c3cccc(Cl)c3)CC2)cc(OC)c1OC
    ?, -14, -0.3, -14, 19%, -12
[2] CSc1ccccc1NC(=O)c1c(C)noc1C
    2%, -13, -0.6, 7, 9%, 5
[3] Cc1cccc(C(=O)N2CCN(c3ncnc4c3cnn4-c3ccccc3)CC2)c1
    4%, 5, 3.1, 13, -38%, 8
[4] c1ccc2nc(N3CCOCC3)c(N3CCOCC3)nc2c1
    -3%, 3, -0.3, 10, 28%, 4
[5] O=C(Nc1ccc(Cl)cc1)C1CCCN1C(=O)NCc1ccccc1 (centres undefined)
    15%, -4, -3.3, -17, 7%, 0
[6] CC12CC3(C)CC(C)(C1)CC(C(=O)Nc1nn[nH]n1)(C2)C3
    -28%, 4, 1.3, 7, -7%, -7
[7] CC(C)NC(=O)c1onc(CSc2ccc(C(C)C)cc2)c1C(=O)O
    ., 1, -0.1, 5, -22%, 0
[8] CC(C)n1nc(C(=O)OCC(=O)N2CC(=O)Nc3ccccc32)c2ccccc2c1=O
    -66%[inhibitor], 15, 8.4, ., -10%, -1
[9] CCCOc1ccc(-c2nnc(N)s2)cc1
    -14%, -8, -1.8, 1, 1%, -2
[10] CCOc1ccc(CC(=O)N/N=C/c2cccnc2)cc1OCC
    27%, -6, -1.7, 6, 4%, 1
[11] O=C(Nc1cccc(-c2nc3ncccc3o2)c1)c1sc2ccccc2c1Cl
    -11%, -2, -2.9, ?, 7%, -26
[12] CC(C#N)(NC(=O)CN1CCN(S(=O)(=O)c2ccccc2C#N)CC1)C1CC1 (centres undefined)
    -25%, -3, -0.1, 12, 4%, 18
[13] COCCCN1C(=O)N(c2ccccc2)C(=O)C1CC(=O)Nc1ccccc1 (centres undefined)
    -15%, 3, -2.9, 5, 5%, 4
[14] C/C(=N\NC(=O)c1cc(Br)ccc1O)c1cccs1
    -58%[inhibitor], -3, -2.0, 0, -9%, -4
[15] Cc1ccc(S(=O)(=O)n2cnc3cc([N+](=O)[O-])ccc32)cc1C
    1%, -27, -2.0, -10, 18%, 4
[16] CCC1CCCCN1CCCNC(=O)Cn1nc(C)n2nc(-c3ccccc3)cc2c1=O (centres undefined)
    -52%[inhibitor], -7, 0.9, 0, 13%, 1
[17] CCOC(=O)C1CCN(C(=O)c2cccnc2Oc2ccc(Cl)cc2)CC1
    10%, 2, -0.1, ., 5%, 7
[18] CCCCCC(=O)N/N=C(\C)c1ccccn1
    -23%, -19, 0.3, -13, 14%, ?
[19] CCOC(=O)CNC(=O)C1CCN(S(=O)(=O)c2ccc(-c3nn[nH]n3)cc2)CC1
    -16%, -3, -2.0, 6, 13%, 3
[20] O=[N+]([O-])c1ccc(COc2ccccc2CN2CCCC2)cc1
    ., -8, -1.6, 2, -3%, 2
[21] COC(=O)[C@H](CCSC)NC(=O)Nc1ccc(C(C)=O)cc1
    -11%, -5, -1.7, 2, 3%, 3
[22] Cc1ccc(-c2cnc3ccccc3n2)cc1C
    ?, -8, -4.8, ., -5%, 29
[23] CN(C)c1ccc(CN(C(=O)/C=C/c2ccco2)C2CCS(=O)(=O)C2)cc1 (centres undefined)
    -4%[15.4 µM], -12, 1.9, -10, -16%, -3
[24] Cc1nnsc1Sc1cccc(C(F)(F)F)c1
    ?, -3, -1.8, 2, -1%, 9
[25] O=C1[C@H]2CCCC[C@H]2C(=O)N1CCCCN1CCN(c2nsc3ccccc23)CC1
    ., -38, -2.0, -3, 6%, -17
[26] COC(=O)c1ccc2nc(NC(=O)COC(=O)CSc3nc(C)cc(C)n3)sc2c1
    0%, 0, -3.7, -21, -13%, -5
[27] CCOC(=O)c1cnc2c(c(C)nn2CC)c1Cl
    28%[15.4 µM], -8, -2.9, 6, -28%, 15
[28] Cc1cc(C(=O)NNC(=S)Nc2cccc(C(F)(F)F)c2)nn1C
    6%, -10, -4.5, ?, 4%, -29
[29] CCCC(=O)Nc1ccc2c(c1)nc(CCNC(=O)c1ccccc1)n2C
    -13%, -17, -2.5, 33, -7%, 0
[30] COc1ccc(C(=O)C2CCCN(C(=O)Cc3c(C)noc3C)C2)cc1OC (centres undefined)
    -12%[15.4 µM], -3, 3.7, 1, ., -5

Another view of some results above.
18: CCCCCC(=O)N/N=C(\C)c1ccccn1
7: CC(C)NC(=O)c1onc(CSc2ccc(C(C)C)cc2)c1C(=O)O
screen / no. | 18 | 7
gsp agonist | -23% | .
D2 potentiator | -19 | 1
D2 ag | 0.3 | -0.1
CtBP-E1A blk | -13 | 5
gsp antag | 14% | -22%
Six1-Eya2 blk | ? | 0

Some of the entries above, set out differently.
cpd | SMILES | gsp agonist | D2 potentiator | D2 ag | CtBP-E1A blk | gsp antag | Six1-Eya2 blk
10 | CCOc1ccc(CC(=O)N/N=C/c2cccnc2)cc1OCC | 27% | -6 | -1.7 | 6 | 4% | 1
11 | O=C(Nc1cccc(-c2nc3ncccc3o2)c1)c1sc2ccccc2c1Cl | -11% | -2 | -2.9 | ? | 7% | -26
12 | CC(C#N)(NC(=O)CN1CCN(S(=O)(=O)c2ccccc2C#N)CC1)C1CC1 (centres undefined) | -25% | -3 | -0.1 | 12 | 4% | 18
13 | COCCCN1C(=O)N(c2ccccc2)C(=O)C1CC(=O)Nc1ccccc1 (centres undefined) | -15% | 3 | -2.9 | 5 | 5% | 4

The list goes on:
The line under a structure holds: gsp agonist, D2 potentiator, D2 ag, CtBP-E1A blk, gsp antag, Six1-Eya2 blk
[31] S=C(NCc1ccco1)N1CCN(c2ccccn2)CC1
    -3%[15.4 µM], -3, -0.9, -9, ., -6
[32] Cc1ccc2cc(COC(=O)C3CCCO3)c(=O)[nH]c2c1 (centres undefined)
    ?, 1, -1.9, 5, 2%, 0
[33] N#C/C(=C\C=C\c1ccccc1)C(=O)NCc1ccco1
    2%[15.4 µM], 5, -2.0, 1, 5%, -3
[34] O=C(COC(=O)c1ccc(OC(F)F)cc1)NC(=O)NC1CCCC1
    -1%, -6, -6.7, -2, 11%, 1
[35] CCOc1ccc(C(C(=O)NCC2CCCO2)N(C(=O)c2snc(C(N)=O)c2N)c2ccccc2F)cc1 (centres undefined)
    -31%, 19, 8.5, 2, 5%, -4
[36] O=C(N1CCOCC1)N1CCN(c2nc(-c3ccccc3)cs2)CC1
    -33%, -15, 0.0, -1, -3%, -11
[37] Cc1onc(-c2ccccc2)c1C(=O)N/N=C/C=C/c1ccccc1
    15%, 0, 9.4, -3, -21%, -6
[38] O=C(Nc1nnc(-c2ccc(F)cc2)o1)c1cc(Cl)sc1Cl
    10%, -2, -2.5, -12, -3%, 1
[39] COc1ccc(OC)c(NC(=O)C2CCCN2S(=O)(=O)c2ccc3c(c2)CC(C)N3C(C)=O)c1 (centres undefined)
    -22%, -3, -2.9, -2, ., -2
[40] S=C(NC1CCCCC1)N1CCN(Cc2ccccc2)CC1
    5%, -27, -1.5, 13, 2%, 2
[41] Cn1cc([N+](=O)[O-])c(C(=O)Nc2ccc(C3CCCCC3)cc2)n1
    16%, -11, -0.3, 4, 12%, -11
[42] CCN(c1ccc(NC(=O)CSCc2c(C)noc2C)cc1)C(C)C
    4%, -2, -1.6, -10, -6%, -10
[43] COc1ccc(C)cc1N(CC(=O)O)S(=O)(=O)c1ccc(C)cc1
    -5%, -2, -2.0, 3, -13%, 1
[44] COc1cc(C(=O)OCC(=O)NC(=O)NC2CCCCC2)cc(Cl)c1OC
    -24%, 7, -5.5, 6, 3%, -4
[45] COc1ccc(C2c3ccc(O)cc3Oc3ncn4nc(-c5ccco5)nc4c32)cc1OC (centres undefined)
    8%[15.4 µM], 2, 3.2, 2, -3%, 2
[46] O=C(Nc1cc(Cl)ccc1Cl)c1ccc(OC(=O)c2ccco2)cc1
    -2%, -4, 2.4, -19, -11%, 2
[47] c1cncc(-c2noc(C34CC5CC(CC(C5)C3)C4)n2)c1
    -60%[inhibitor], -2, -3.8, 6, 2%, 13
[48] O=C(NC1CCCC1)C(c1ccc(F)cc1)N(C(=O)c1csnn1)c1ccccc1F (centres undefined)
    8%, 1, -2.4, 1, 6%, 6
[49] Cc1cc(=O)oc(C)c1C(=O)NCc1ccc(F)cc1
    ?, 3, -1.8, 1, 9%, 0
[50] Cc1nc2cc(NC(=O)c3ccc(S(=O)(=O)N(C)c4ccccc4)cc3)ccc2o1
    2%[15.4 µM], -7, 3.0, -9, 32µM*, -7
[51] COc1ccc2c(=O)c3c(=O)n(Cc4ccco4)c(-c4ccc(C)cc4)nc3oc2c1
    -2%, -6, -3.2, -2, ?, -22
[52] CCOC(=O)C1CCN(S(=O)(=O)c2cnc[nH]2)CC1
    -2%, -24, -3.6, 3, 7%, 2
[53] Cc1ccnc(NC(=O)C2(c3cccs3)CCOCC2)c1
    5%[15.4 µM], -8, 0.5, 10, 12%, -2
[54] CCOC(=O)Cc1csc(NC(=O)/C=C/c2ccc(Cl)cc2)n1
    -15%, -4, 11, -4, 6%, 1
[55] O=C(NCCc1ccccn1)c1cccc(S(=O)(=O)N2CCCCCC2)c1
    -15%, -3, 0.3, -1, -5%, 7
[56] Clc1ccc2nc(C3CCCCC3)c(CC3CCCCC3)n2c1
    ., 4, 4.5, 0, ., 22
[57] Cc1cc(NC(=O)CCC(=O)N(c2ccccc2)C(C(=O)NC2CCCC2)c2ccccc2F)no1 (centres undefined)
    -2%[15.4 µM], -2, 3.4, 0, -7%, -1
[58] O=C(Nc1ccccc1)c1ccc(S(=O)(=O)N2CCCC2)cc1
    -18%, -3, 1.6, 10, -1%, 3
[59] CCOc1ccc(-n2c(Cc3cc(=O)[nH]c(=O)[nH]3)nnc2SCC(N)=O)cc1
    8%, -2, -2.7, 5, 10%, 2
[60] COc1cccc(-c2cnc(C(O)c3c(C)ccc4ccccc34)[nH]2)c1 (centres undefined)
    ., 0, 4.9, -11, ., -10

Three of the entries above in order of their number in D2 potentiator, descending.
cpd | structure | D2 potentiator
42 | CCN(c1ccc(NC(=O)CSCc2c(C)noc2C)cc1)C(C)C | -2
5 | O=C(Nc1ccc(Cl)cc1)C1CCCN1C(=O)NCc1ccccc1 (centres undefined) | -4
22 | Cc1ccc(-c2cnc3ccccc3n2)cc1C | -8

Compounds were not picked by outcome; 1.4% or so of the library scored in one or more.
